From PubChem
Mtb bLac sens: beta-lactam sensitization of Mtb H37Rv; inhibition, % at 25 µM; M. tuberculosis H37Rv growth with meropenem, percent inhibition; hits of this screen are not shown here; 330,000 tested, 0.27% active; AID 434955;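 active means about 74% or more and at least 40 points above the plate without the antibiotic, then above 30% in a dose series; inconclusive means first-round hits that could not be retested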;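 further: growth measured after seven days incubation then overnight dye step; 0% = bacteria only wells and 100% = bacteria with antibiotic; twin plates without the antibiotic show which effects depend on it; some results filed as inactive read as strong as hits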
Arbovirus anti: antivirals against arbovirus infection | arbovirus infection cell-based antiviral screen | inhibition, % at 10 µM | 200,000 tested, 0.37% active | AID 1251;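 active means inhibition from about 30%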;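 further: bluetongue infection of BSR cells; cell survival read as ATP light after 72 h; 0% = infected wells without compound and 100% = uninfected wells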
RecA intein inh: Mtb RecA intein splicing inhibition. cell-free RecA intein splicing, fluorescence. P9WHJ3. 290,000 tested, 0.75% active. inhibition, %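 (about 9 µM by stock and volumes)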; in the data active means inhibition above about 30%; inconclusive means no clear call, values can overlap the other calls;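 further: 0% = vehicle wells and 100% = reference inhibitor control wells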
Target sequence (P9WHJ3 whole entry, looked up): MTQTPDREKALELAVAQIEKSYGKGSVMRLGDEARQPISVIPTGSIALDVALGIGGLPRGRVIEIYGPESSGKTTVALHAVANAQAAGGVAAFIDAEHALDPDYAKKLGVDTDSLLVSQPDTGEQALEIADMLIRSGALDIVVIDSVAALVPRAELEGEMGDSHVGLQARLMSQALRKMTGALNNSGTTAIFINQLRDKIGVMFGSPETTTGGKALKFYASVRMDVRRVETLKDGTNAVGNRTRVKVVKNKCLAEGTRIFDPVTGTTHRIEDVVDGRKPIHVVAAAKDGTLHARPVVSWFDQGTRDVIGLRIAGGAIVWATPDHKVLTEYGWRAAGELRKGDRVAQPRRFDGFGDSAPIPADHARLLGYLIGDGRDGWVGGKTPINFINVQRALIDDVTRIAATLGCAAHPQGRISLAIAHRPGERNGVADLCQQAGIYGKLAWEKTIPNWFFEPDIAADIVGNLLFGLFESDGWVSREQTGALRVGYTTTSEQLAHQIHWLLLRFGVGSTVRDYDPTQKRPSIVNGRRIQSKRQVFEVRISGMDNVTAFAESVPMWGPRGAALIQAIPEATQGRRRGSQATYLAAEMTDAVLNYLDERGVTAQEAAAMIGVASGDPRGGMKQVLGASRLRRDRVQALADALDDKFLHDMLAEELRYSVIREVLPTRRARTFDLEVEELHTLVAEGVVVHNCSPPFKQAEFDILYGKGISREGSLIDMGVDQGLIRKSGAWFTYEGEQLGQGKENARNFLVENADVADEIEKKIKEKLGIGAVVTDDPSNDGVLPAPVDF
Mtb H37Rv: M. tuberculosis H37Rv growth inhibitors, H37Rv strain (AID 1626) | M. tuberculosis H37Rv growth inhibition; higher % means a stronger effect | inhibition, % at 10 µM, or IC50 in µM where a hit was titrated | 220,000 tested, 0.95% active;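 active means confirmed in a dose series; inconclusive means inhibition above 80% but not taken into the dose series; inactive means below 80% or under 30% at every dose of the series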;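 further: bacteria incubated seven days before Alamar blue readout; 0% = bacteria only wells and 100% = bacteria with antibiotic wells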
YopH inh: blocks Yersinia enterocolitica YopH tyrosine phosphatase | fluorescence Ex485/Em525 | 140,000 tested, 0.16% active | inhibition, %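 (about 10 µM by stock and volumes)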;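 active means inhibition of 50% or more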;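 further: controls were vehicle for no effect and minimum signal wells for full effect; inactives centre near -20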
Arbovirus anti repeat: second read-out of Arbovirus anti, no call of its own (marks repeat the call); inhibition, %; measured here: 10K subset replicate screen; many hits read low in the repeat;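 first of two repeat runs on a subset; 0% = infected and 100% = uninfected wells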
* = called active by the depositor; ? = inconclusive; · = not tested or not shown.

SMILES | Mtb bLac sens | Arbovirus anti | RecA intein inh | Mtb H37Rv | YopH inh | others
CC1CCCN(c2ccc(C(=O)NCCc3ccccc3)cn2)C1 (stereo not drawn) | 10 | -12 | · | 7% | -16
CN1c2ccccc2C(C)(C)[C@]12C=Cc1cc(O)ccc1O2 | -15 | -3 | · | -2% | -3
O=[N+]([O-])c1ccc(C[n+]2c(-c3ccccc3)cc(-c3ccccc3)cc2-c2ccccc2)cc1 | 10 | · | 5.0 | · | ·
O=C(CCN1C(=O)/C(=C\C=C\c2ccccc2)SC1=S)Nc1cccc(C(=O)O)c1 | 0 | · | 7.8 | · | ·
O=C(Cc1ccc(-c2ccccc2)cc1)N1CCOCC1 | 2 | 6 | 0.6 | -8% | -8
CCN(CC)C(=O)CSc1nc2cc3c(cc2c(=O)n1Cc1ccc2c(c1)OCO2)OCO3 | -4 | 6 | 4.0 | 14% | -32
CN(C)c1ccc(N/C=C/C(=O)C(F)(F)F)cc1 | -11 | 11 | -5.8 | 0% | ·
Cc1c(C2OC(=O)C3(CCCCC3)C(=O)C2(C)C)c(=O)n(-c2ccccc2)n1C (stereo not drawn) | -14 | -16 | · | -4% | -28
CCOc1ccc(S(=O)(=O)NCc2cccs2)cc1 | 15 | 5 | 1.0 | 11% | -2
O=C(NCCN1CCNC1=O)C1CCC(=O)N(Cc2ccccc2F)C1 (stereo not drawn) | -1 | · | 1.8 | · | ·
C=CCOC(=O)Nc1ccc(Cl)cc1NC(=O)OCC=C | -5 | -3 | 5.6 | 2% | -23
O=C(NCc1ccco1)c1cccn2c(=O)c3cc4ccccc4cc3nc12 | · | -14 | · | · | -10
O=C(COC(=O)Cn1cnc2ccccc21)NCc1ccc(F)cc1 | 2 | 2 | 4.2 | -4% | ·
COc1ccc(N2C(=O)CC(N(CCc3ccc(OC)c(OC)c3)C(=S)Nc3ccccc3)C2=O)cc1 (stereo not drawn) | 8 | -5 | 5.1 | 4% | 0
O=C(O)c1ccc(N/N=C/C2=C(N3CCOCC3)C(=C\c3ccccc3)/CC2)cc1 | 56 | · | 18 | -4% | ·
O=C(Nc1ccc2c(c1)OCO2)c1cnn2c(C(F)(F)F)cc(-c3ccco3)nc12 | 5 | -5 | · | -1% | -42
Clc1ccc(Cn2ncc3c(NCCN4CCOCC4)ncnc32)cc1 | -7 | 4 | -5.9 | 2% | -27
COc1cc(OC)cc(C(=O)NCCNc2nc3cc(C)cc(C)c3cc2C#N)c1 | 1 | · | -1.6 | · | ·
O=[N+]([O-])c1ccccc1OCC(O)CNC1CCCC1 (stereo not drawn) | 1 | · | -1.6 | -9% | ·
COc1cc(C(=O)OCCC(C)C)cc(OC)c1O | 7 | · | -2.8 | -4% | ·
Cn1c(-c2ccc(C=O)s2)nc2ccccc21 | 25 | -2 | -118 | -3% | -10
O=C(CN1CCOc2ccccc21)N1CCCC1 | 0 | -6 | -0.5 | · | -22 | Arbovirus anti repeat=-8
COc1ccc(C(=O)Nc2cc(-c3nn4c(C)nnc4s3)ccc2C)cc1 | 8 | 3 | 0.2 | -3% | -46 | Arbovirus anti repeat=-6
CC(=O)Nc1cccc(NC(=O)C2CCCN2C(=O)Nc2ccccc2C)c1 (stereo not drawn) | -1 | 11 | -3.5 | -4% | -20
CCC1CCCCN1CC(=O)c1ccc(OC(F)F)cc1 (stereo not drawn) | -4 | -1 | -2.8 | -7% | -25
O=C(CCc1nc2ccccc2c(=O)[nH]1)Nc1nnc(SCc2ccc(F)cc2)s1 | -2 | · | -0.4 | · | ·
Cc1cc2cc(C(c3nnnn3CC3CCCO3)N3CCCc4ccccc43)c(=O)[nH]c2cc1C (stereo not drawn) | · | -32 | -2.5 | -5% | 15
CN(Cc1ccccc1)C(=O)C1CCC(CNS(=O)(=O)c2cccc3cccnc23)CC1 (stereo not drawn) | -10 | · | -1.0 | 2% | ·
Cc1ccc(SCC(=O)NCC(C)C)cc1 | -6 | 0 | 1.9 | -4% | -33 | Arbovirus anti repeat=-3
O=C(Nc1ccc2ccccc2n1)Nc1ccccc1F | -2 | · | -7.3 | · | ·
Cc1[nH]ccc2c1[nH]c1cc(=O)ccc12 | 1 | · | -44 | 1% | ·
C=CCn1c(Cc2ccccc2)nnc1SCc1nc2ccccc2c(=O)[nH]1 | -5 | 2 | -0.3 | 5% | ·
COC(=O)Nc1ccccc1C(=O)N1CCN(c2ccc(C)cc2)CC1 | -9 | -1 | -0.9 | 2% | -18
COc1ccc(C2=NO[C@@H]3[C@@H]4C[C@@H]([C@H]5C(=O)N(C)C(=O)[C@@H]45)[C@H]23)c(OC)c1 | -6 | · | 0.3 | -9% | ·
CCCCc1cn([C@@H](CCCCN)C(=O)N2CCNCC2)nn1 | -5 | 8 | 0.4 | -11% | ·
CSc1nc2nc(-c3ccccc3)cc(=O)n2[nH]1 | 21 | 0 | -2.1 | 5% | -24
CC(C)Cn1c(N)cc(=O)n(C)c1=O | 0 | 2 | -0.8 | -3% | ·
CC(=O)N1CCCc2cc(S(=O)(=O)CCC(=O)N3CCN(c4cccc(C)c4)C(C)C3)ccc21 (stereo not drawn) | -2 | 5 | -3.4 | · | -38
CCOC(=O)c1cc(-c2ccc(Cl)cc2)nc2c1c(=O)[nH]c(=O)n2CCOC | -5 | -1 | -1.2 | 0% | ·
Nc1nc2ccccc2n1/N=C/c1ccc(Br)cc1 | 100 | 7 | 8.3 | ? | -5

Among those listed so far, 7 contain fluorine.
SMILES | Mtb bLac sens | Arbovirus anti | RecA intein inh | Mtb H37Rv | YopH inh | others
CN(C)c1ccc(N/C=C/C(=O)C(F)(F)F)cc1 | -11 | 11 | -5.8 | 0% | ·
O=C(NCCN1CCNC1=O)C1CCC(=O)N(Cc2ccccc2F)C1 (stereo not drawn) | -1 | · | 1.8 | · | ·
O=C(COC(=O)Cn1cnc2ccccc21)NCc1ccc(F)cc1 | 2 | 2 | 4.2 | -4% | ·
O=C(Nc1ccc2c(c1)OCO2)c1cnn2c(C(F)(F)F)cc(-c3ccco3)nc12 | 5 | -5 | · | -1% | -42
CCC1CCCCN1CC(=O)c1ccc(OC(F)F)cc1 (stereo not drawn) | -4 | -1 | -2.8 | -7% | -25
O=C(CCc1nc2ccccc2c(=O)[nH]1)Nc1nnc(SCc2ccc(F)cc2)s1 | -2 | · | -0.4 | · | ·
O=C(Nc1ccc2ccccc2n1)Nc1ccccc1F | -2 | · | -7.3 | · | ·

Further entries:
SMILES | Mtb bLac sens | Arbovirus anti | RecA intein inh | Mtb H37Rv | YopH inh | others
O=C(NCCc1ccccc1)c1ccc2nc(-c3ccco3)c(-c3ccco3)nc2c1 | 6 | 1 | -32 | -3% | -23
O=C(NC(=S)N1CCOCC1)c1ccc(F)cc1 | 7 | · | -1.9 | · | ·
Cc1ccsc1/C=N\Nc1cn[nH]c(=O)c1Cl | 4 | -10 | -2.4 | 2% | ·
COc1cccc(N(C(=O)CNC(=O)c2ccco2)C(C(=O)NC2CCCCC2)c2cccnc2)c1 (stereo not drawn) | 4 | · | -0.9 | · | ·
COC(=O)c1cn(CC(=O)Nc2ccc(F)cc2)c2ccccc12 | 13 | -8 | -1.6 | -1% | ·
Cc1cc(C)nc(S/C=C/C(=O)c2ccc(F)cc2)n1 | 78 | · | -0.7 | 7% | ·
CC(C)NCC#CCOc1ccc(Cl)cc1 | -5 | -6 | 0.9 | 0% | ·
CC(C)CCNC(=O)CC1C(=O)N(Cc2ccccc2)C(C)c2nc3ccccc3n21 (stereo not drawn) | 0 | -1 | -0.4 | -3% | 5
CC(C)(C)NS(=O)(=O)c1ccc(/C=C/C(=O)O)cc1 | 3 | 2 | -1.1 | 3% | ·
Nc1cc(OC(=O)c2ccccc2Br)nn1S(=O)(=O)c1ccccc1 | -1 | -2 | 25 | · | -31
O=C1Nc2cc(C(=O)NCCCN3CCCC3)ccc2S/C1=C/c1ccccc1F | -8 | · | 0.3 | · | ·
CN1C(=O)CC(Nc2cccc3cccc(N)c23)C1=O (stereo not drawn) | -10 | -11 | -1.3 | 5% | ·
CCOc1cc(C=O)cc(Br)c1OCC(N)=O | 3 | -6 | 0.9 | 0% | ·
O=C(c1nc(SCc2ccc([N+](=O)[O-])cc2)n2ccccc12)C(F)(F)F | -7 | · | 1.3 | -9% | ·
O=C(O)c1ccccc1-c1cn2cc(Cl)ccc2n1 | -9 | -1 | 4.4 | 6% | ·
Clc1cccc(-c2nc(-c3ccccn3)no2)c1 | 32 | -1 | 4.8 | -1% | -9
CCn1cc([N+](=O)[O-])c(C(=O)Nc2ccn(Cc3ccccc3)n2)n1 | 2 | -20 | -6.7 | -3% | -10
O=C1c2ccccc2C2(c3ccccc3)N1CCN2C(=O)C(Cl)(Cl)Cl (stereo not drawn) | 6 | · | 25 | · | ·
CCN=c1sc(C(=O)OC)cc(=O)n1CC | -10 | 5 | · | -10% | -4
O=C(CCc1ccc(S(=O)(=O)N2CCOCC2)cc1)Nc1cc(Cl)ccc1N1CCOCC1 | -1 | -4 | 4.7 | 0% | -27
COc1cc(C2C(C#N)=C(N)Oc3n[nH]c(-c4cccs4)c32)cc(OC)c1O (stereo not drawn) | -4 | 0 | 11 | 3% | ·
CCOC(=O)/C=c1\s/c(=C\c2ccc3cc(OC)ccc3c2)c(=O)n1CC(=O)NCC1CCCO1 (stereo not drawn) | -5 | -12 | -36 | -7% | -28
C#CCOc1ccc(Cl)cc1/C=C1/C(=O)ON=C1C | 1 | · | 1.3 | · | ·
COc1ccccc1-c1nn(Cc2ccccc2)cc1/C=C/C(=O)O | -8 | · | -0.7 | -3% | ·
CCOc1ccc2nc(SCC(=O)N(CCOC)c3c(N)n(Cc4ccccc4)c(=O)[nH]c3=O)[nH]c2c1 | -13 | · | -2.1 | · | ·
O=C(CCCN1C(=O)/C(=C\c2cccs2)SC1=S)Nc1cccnc1 | 9 | 1 | 0.5 | 1% | -27
COC(=O)CSC1=C(C#N)C(c2ccc(C)o2)CC(=O)N1 (stereo not drawn) | 2 | -19 | -0.5 | -2% | ·
CCOC(=O)N1CCC(=NNS(=O)(=O)c2cccc([N+](=O)[O-])c2)CC1 | · | 1 | -1.5 | 0% | -13
CN1C(=O)C(=O)/C(=C(/O)c2ccccc2)C1c1ccccc1 (stereo not drawn) | 6 | · | 1.1 | · | ·
CC(C)(CO)NCc1cccs1 | -2 | 3 | 1.6 | 1% | ·
CC(=O)c1ccc(NC(=O)c2ccc([N+](=O)[O-])o2)cc1 | 100 | · | 0.6 | · | ·
O=C(Nc1ccc2snnc2c1)Nc1cccc2ccccc12 | -6 | -5 | 2.4 | 42% | 7
C=CCNc1nc(NCC)nc(N2CCOCC2)n1 | -15 | 3 | -3.0 | -5% | 24
COc1ccc(S(=O)(=O)N2CCCCCC2)cc1NC(=O)Cc1ccccc1 | 7 | 7 | 7.0 | 2% | ·
O=C(Nc1nc2c(s1)CCCC2)c1cc2n(n1)C(C(F)(F)F)CC(C1CC1)N2 (stereo not drawn) | 27 | -18 | 4.0 | 7% | -27
CNC(=S)Nc1cc(C(=O)N2CCCC2)ccc1N1CCCC1 | 7 | 2 | -0.9 | 0% | ·
Cc1ccc(CNC(=O)CNC(=O)c2c(C)nn(C)c2Cl)cc1 | 2 | 5 | 0.9 | 2% | ·
C1COCCNCCOCCOCCOCCN1 | 1 | -1 | 1.8 | 1% | -20
Cc1ccc(C)c(SCC(=O)NNC(=O)c2ccccc2)c1 | -1 | · | -1.7 | · | ·
COc1cccc(NC(=O)CN(C)C(=O)CC(C)c2ccccc2)c1 (stereo not drawn) | -7 | · | 0.1 | · | ·
Cc1ccc2nc(-c3ccccc3)nc(SC(C)C(=O)NCc3cccs3)c2c1 (stereo not drawn) | 9 | 2 | 0.0 | · | -10
Cn1c2c(c(=O)n(C)c1=O)CN(CCN1CCNCC1)CN2 | 8 | 9 | 2.6 | -9% | -40
O=C(c1cn(-c2ccccc2)nc1-c1ccc(F)cc1)N1CCOCC1 | 4 | 1 | -0.2 | -14% | -20
CN(CCc1cnn(C)c1)C(=O)CCc1nnc(CCCc2ccccc2)o1 | -6 | 4 | 0.9 | -1% | ·
CCOC(=O)C(NC(=O)Nc1ccc(C(N)=O)cc1)(c1ccccc1)C(F)(F)F (stereo not drawn) | 3 | 0 | 11 | 3% | -20
COc1ccc(Nc2nc(-c3c(C)nc4ncccn34)cs2)cc1 | · | -13 | · | 8% | ·
O=C(Nc1nc2c(s1)CCCC2)c1cc(-c2ccccc2)nc2ccccc12 | 91 | -5 | 5.2 | 14% | -13

These rows are one share of the data; the hit share may differ from the screen's.
